Vif A3G: inhibitors of Vif binding to APOBEC3G peptide, primary screen, biochemical, TR-FRET, GST-Vif 1-94, biotin-A3G peptide, dose response retest (AID 1117319); TR-FRET GST-Vif / biotin-A3G peptide binding; higher % means a stronger effect; test concentration not given here; strong numbers were not always called active; one-dose inhibition, %; IC50 in µM for titrated hits; 260,000 compounds, 0.57% hits;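 active = above the screen mean plus three standard deviations and confirmed in dose response; inconclusive = results disagree or hit not tested in dose response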;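 also: Vif residues 1-94 fused to GST binding biotinylated APOBEC3G peptide 110-148; 0% = full assay without inhibitor and 100% = GST in place of GST-Vif; retest series ran down from 100 µM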
ALR H2O2 inh: human ALR oxidase inhibition via reduced H2O2; 290,000 compounds, 3.8% hits; purified ALR, DTT oxidation, H2O2 HRP-luminol luminescence; inhibition, % (concentration not given with the values); AID 485317;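 active = mean and each replicate at 75% or more; inconclusive = only one of the two met; inactive = neither met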;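 also: stock transfer was 7.5 nL into about 7.5 µL; 0% = neutral wells and 100% = wells with inactivated enzyme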
Target sequence (P55789 whole entry, looked up): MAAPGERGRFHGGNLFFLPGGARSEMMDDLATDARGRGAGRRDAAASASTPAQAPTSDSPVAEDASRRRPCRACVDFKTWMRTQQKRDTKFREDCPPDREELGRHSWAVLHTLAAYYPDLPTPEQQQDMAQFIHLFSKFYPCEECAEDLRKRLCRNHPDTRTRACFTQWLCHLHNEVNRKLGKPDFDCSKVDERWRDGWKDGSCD
RanGTP-Imp inh: inhibitors of RanGTP-importin-beta interaction, primary screen, biochemical, FRET, CFP-Ran, YFP-importin-beta, homogeneous; cell-free CFP-Ran/YFP-importin-beta FRET ratio; inhibition, % (no concentration beside the values); 300,000 compounds, 1.1% hits; AID 2216;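 active = most replicates above 15%; inconclusive = exactly half above 15%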;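 also: 0% = DMSO wells and 100% = Ran loaded with GDP instead of GTP; wells of about 40 µL received 100 nL stock; the first replicate is given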
LANA-H2B inh: blocks KSHV LANA binding to histone H2A/H2B. Q9QR71. cell-free LANA-H2A/H2B peptide, fluorescence polarization. inhibition, % (test concentration not listed). 320,000 compounds, 0.6% hits. AID 2629; in the data active = inhibition mostly above about 10%, no sharp cut-off; inactive = mostly below about 6.7%;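 also: stock transfer was 7.5 nL into about 10 µL; 0% = median of vehicle wells and 100% = median of positive control wells; one replicate is shown; the record names a cut of 25% in any replicate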
Calb FLC: affects C. albicans growth with fluconazole; C. albicans CaCi-2 (fluconazole-resistant clinical isolate) + fluconazole, Alamar Blue growth, 48 h; growth inhibition, % (concentration not given with the values); 300,000 compounds, 0.57% hits; AID 1979;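 active = most replicates above 75%; inconclusive = exactly half above 75%; inactive = most below 75%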;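 also: all wells also contain fluconazole at 8 µg/ml as a sub-toxic cotreatment; 0% = median of DMSO wells and 100% = median of geldanamycin control wells; wells of about 8 µL received 7.5 nL stock; the first replicate is given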
HNF4A DNA FP: change in binding of human HNF4 alpha to DNA; P41235; HNF4a-FITC DNA binding, fluorescence polarization, 1 h; activity change, % at 10 µM; 360,000 compounds, 0.3% hits; AID 1224865; in the data active = activity change above about 30%, passing the limit was not always enough;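 also: controls were the assay level and a saturating level of protein; the project sought stronger binding though the title names inhibitors; some compounds called inactive have numbers as strong as hits; positive values seem to mean higher polarization but the record does not say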
Target sequence (P41235 whole entry, looked up): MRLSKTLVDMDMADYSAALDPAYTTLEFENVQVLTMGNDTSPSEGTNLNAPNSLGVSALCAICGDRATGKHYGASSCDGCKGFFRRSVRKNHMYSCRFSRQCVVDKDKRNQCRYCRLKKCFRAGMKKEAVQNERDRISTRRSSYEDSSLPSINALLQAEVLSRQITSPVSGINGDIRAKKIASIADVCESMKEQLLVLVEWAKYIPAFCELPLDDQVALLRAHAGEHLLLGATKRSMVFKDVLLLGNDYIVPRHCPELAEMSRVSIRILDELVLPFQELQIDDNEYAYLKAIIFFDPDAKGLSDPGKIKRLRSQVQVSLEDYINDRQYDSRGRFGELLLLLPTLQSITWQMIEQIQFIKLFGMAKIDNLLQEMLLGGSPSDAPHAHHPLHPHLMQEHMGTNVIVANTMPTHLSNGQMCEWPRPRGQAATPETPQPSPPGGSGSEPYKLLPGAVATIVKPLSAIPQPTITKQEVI
B2AR ag: human beta-2 adrenergic receptor agonism by FAP; Am2.2-beta2AR cells, FAP receptor internalization, flow cytometry; reference of the scale not given here; response, % (test concentration not listed); AID 504454; 340,000 compounds, 0.43% hits;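 active = response above a set limit, near 3 SD of response in nonfluorescent compounds, cut at about 42% in these data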;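 also: stock transfer was 100 nL into about 11 µL; a reference agonist was the positive control; negative values mostly stem from fluorescent compounds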
Target sequence (P07550 whole entry, looked up): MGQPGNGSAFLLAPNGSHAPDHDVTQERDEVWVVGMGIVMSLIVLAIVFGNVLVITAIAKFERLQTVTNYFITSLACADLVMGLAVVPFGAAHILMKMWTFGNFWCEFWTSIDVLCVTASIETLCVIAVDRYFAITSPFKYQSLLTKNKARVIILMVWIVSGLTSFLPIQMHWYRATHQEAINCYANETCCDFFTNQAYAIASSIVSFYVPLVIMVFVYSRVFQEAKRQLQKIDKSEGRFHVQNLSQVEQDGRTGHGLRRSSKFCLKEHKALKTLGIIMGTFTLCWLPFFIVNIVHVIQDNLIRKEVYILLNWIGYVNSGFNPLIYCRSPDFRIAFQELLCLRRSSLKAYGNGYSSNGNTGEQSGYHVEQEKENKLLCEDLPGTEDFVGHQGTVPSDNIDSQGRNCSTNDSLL
* = called active by the depositor; ? = inconclusive; / = not tested or not shown.

SMILES | Vif A3G | ALR H2O2 inh | RanGTP-Imp inh | LANA-H2B inh | Calb FLC | HNF4A DNA FP | B2AR ag
Cc1ccc(-c2nc(CS(=O)CC(=O)NCCN3CCCCC3C)c(C)o2)cc1 (centres undefined) | / | 98* | 6.2 | 6.8 | -6 | 0.9 | -8
CCOC(=O)c1ccc(S(=O)(=O)NC2CCCCCCC2)n1C | 8% | -26 | 0.2 | 0.0 | -7 | -2.4 | -8
CCOC(=O)C1=CC[C@@H](c2cc3cc(OC)ccc3n2C)N(S(=O)(=O)c2ccc(C)cc2)[C@H]1C(=O)OCC | / | -3 | / | 4.1 | / | 3.0 | 3
CCCc1cc(=O)[nH]c(SCC(=O)N(CC(C)C)C2CCS(=O)(=O)C2)n1 (centres undefined) | 0% | -6 | 1.9 | -5.1 | -2 | -1.9 | -3
Cc1ccc(CN2C(=O)C(=O)c3cc(C)ccc32)cc1 | / | -2 | / | -6.4 | / | -5.7 | 17
COc1ccc(CN2CC34C=CC(O3)C(C(=O)O)C4C2=O)cc1 (centres undefined) | 7% | -8 | -2.2 | 4.6 | -7 | 1.5 | 11
CC(C)CNC(=O)CSc1nnc(-c2ccc(Cl)cc2)n1N | / | -1 | 1.6 | 2.0 | -3 | -4.1 | 5
Cc1ccc(-n2c(CNc3ccc(F)cc3)nnc2SCC(=O)N2CCCC2)cc1 | 25% | -6 | -3.1 | -4.7 | -13 | 0.3 | -5
CCN(CC)S(=O)(=O)c1ccc(NC(=O)Cn2c(=O)sc3ccccc32)cc1 | 0% | / | ? | -5.2 | -1 | 1.4 | -1
C#CCn1cc[n+](CC(=O)N(C)C)c1 | 0% | -3 | 1.3 | 2.6 | 2 | -5.2 | 2
Cn1nc(-c2ccc(N3CCN(CCO)CC3)c([N+](=O)[O-])c2)c2ccccc2c1=O | -3% | -1 | 3.3 | 3.8 | 7 | -0.6 | 11
Fc1ccc(CCNC(=S)Nc2ccc(F)cc2)cc1 | / | / | 5.6 | / | -15 | -0.5 | 1
CN(C(=O)COC(=O)c1cc(F)c(F)cc1Cl)c1ccccc1 | / | / | 0.5 | 5.4 | 14 | -1.6 | -1
O=C(N/N=C/c1ccccc1[N+](=O)[O-])c1ccc2nc[nH]c2c1 | ? | 8 | -1.1 | 3.5 | 1 | -0.8 | -1
COc1cc2ccccc2cc1C(=O)Nc1nc(C)c(C(C)=O)s1 | / | -4 | 4.6 | -3.1 | -18 | -0.8 | -7
Cc1cc(SCC(=O)c2ccccc2)n2ncc(-c3ccccc3)c2n1 | / | -19 | 0.6 | -1.4 | 1 | 11 | 5
CCOC(=O)N1CCN(S(=O)(=O)c2ccc(C(=O)Nc3sc4c(c3C(N)=O)CCN(CC)C4)cc2)CC1 | / | 10 | 43* | -10 | 2 | -0.2 | 9
CNc1ccc(/C=C(\CCC(=O)O)c2nc3ccccc3s2)cc1[N+](=O)[O-] | 0% | 57 | ? | 2.7 | 10 | -0.9 | 0
O=C(O)c1cccc(N/N=C/c2cc(Br)cc(Br)c2O)c1 | 9% | 98* | -7.3 | 0.1 | -22 | -5.2 | 3
CCC/C=C(\CCC)C(NS(=O)(=O)c1cccc2cccnc12)c1ccc(C(=O)OC)cc1 (centres undefined) | -9% | 0 | -1.3 | -3.5 | -3 | / | /
CCC(C)N(C(=O)COC(=O)C1CCN(S(=O)(=O)c2ccc(C)c(C)c2)CC1)C1CCS(=O)(=O)C1 (centres undefined) | 0% | -13 | 6.8 | 2.5 | 9 | 1.3 | 1
CCN(C(=O)c1cc(S(=O)(=O)N2CCOCC2)cn1C)c1cccc(C)c1 | / | -5 | -0.2 | -3.7 | -1 | -1.4 | -3
COc1cc2c(-c3ccccc3O)nc3c(c(C)nn3-c3ccccc3)c2cc1OC | / | -1 | 2.3 | 3.1 | -5 | -1.5 | 3
Cc1ncsc1CCSc1nc2ccccc2c(=O)n1C | -1% | -13 | ? | 0.5 | 17 | -2.0 | 9

Part of the list above, with each value named:
Cc1ccc(-n2c(CNc3ccc(F)cc3)nnc2SCC(=O)N2CCCC2)cc1
- Vif A3G: 25%
- ALR H2O2 inh: -6
- RanGTP-Imp inh: -3.1
- LANA-H2B inh: -4.7
- Calb FLC: -13
- HNF4A DNA FP: 0.3
- B2AR ag: -5
CCN(CC)S(=O)(=O)c1ccc(NC(=O)Cn2c(=O)sc3ccccc32)cc1
- Vif A3G: 0%
- ALR H2O2 inh: /
- RanGTP-Imp inh: ?
- LANA-H2B inh: -5.2
- Calb FLC: -1
- HNF4A DNA FP: 1.4
- B2AR ag: -1

Next part:
SMILES | Vif A3G | ALR H2O2 inh | RanGTP-Imp inh | LANA-H2B inh | Calb FLC | HNF4A DNA FP | B2AR ag
CCOc1ccc(N(CC(=O)NC2CCCCC2)S(=O)(=O)c2ccccc2)cc1 | / | -4 | -6.9 | 0.9 | 2 | 0.8 | -17
N#CC1(c2ccc(NC(=O)c3ccccc3)cc2)CCCC1 | -6% | -1 | 0.8 | -3.4 | 33 | -2.0 | 5
O=C(CCS(=O)(=O)c1ccccc1)Nc1ncc([N+](=O)[O-])s1 | / | -2 | -6.7 | -1.7 | 99* | -2.0 | 10
COc1ccc([N+](=O)[O-])c(S(=O)(=O)c2ccccc2)n1 | 23% | 97* | 5.7 | -5.7 | -19 | 0.9 | 51*
COc1ccc(OC)c(/C=N/NC(=O)Cc2nc3ccccc3[nH]2)c1 | / | 3 | 8.9 | -2.3 | -4 | -6.4 | 1
O=C(NCCCN1CCCC1=O)c1ccc(CNS(=O)(=O)c2ccc(F)cc2)cc1 | -4% | -3 | -17 | 3.3 | -4 | -0.9 | 5
CCO[C@@H]1OC(C(=O)NC2CC2)=C[C@H](c2ccc3c(c2)OCO3)[C@H]1CCCO | 5% | -3 | 0.2 | -1.8 | -2 | -1.1 | 2
Cc1c(N2C(=O)CSC2c2ccc(F)cc2)c(=O)n(-c2ccccc2)n1C (centres undefined) | -8% | 4 | 0.7 | -1.8 | 1 | 4.5 | -2
COc1ccccc1/C=C/C=C1\Oc2c(ccc(O)c2CN2CCN(CCO)CC2)C1=O | / | -1 | -431 | -28 | -19 | 40* | -3
Cc1noc(C)c1S(=O)(=O)NCC(=O)O | 1% | -52 | -1.6 | 1.7 | -8 | -4.4 | 3
CNC(=O)N(O)C1N(/N=C/c2ccccc2F)C(=S)SC1(C)C (centres undefined) | -2% | 32 | -2.6 | -3.6 | -10 | -1.2 | -1
NC(=O)CC[C@H](NC(=O)c1ccc(Cl)cc1)C(=O)NNC(=O)COc1cccc(Br)c1 | -6% | -6 | / | -0.2 | / | 2.2 | -5

Taken from above:
In HNF4A DNA FP, CNC(=O)N(O)C1N(/N=C/c2ccccc2F)C(=S)SC1(C)C (centres undefined) has the entry -1.2
In Calb FLC, Cc1ncsc1CCSc1nc2ccccc2c(=O)n1C has the entry 17

The results go on:
SMILES | Vif A3G | ALR H2O2 inh | RanGTP-Imp inh | LANA-H2B inh | Calb FLC | HNF4A DNA FP | B2AR ag
COc1ccc(Cl)cc1NC(=S)NCCc1ccc(S(N)(=O)=O)cc1 | 22% | -5 | -1.0 | 2.2 | 16 | -0.6 | -2
C/C(=C\C(=S)Nc1ccccc1)Nc1ccccc1 | / | 46 | 2.5 | 4.3 | 3 | 11 | -1
CN1CCCN(C(=O)CNC(=O)Cc2ccccc2)CC1 | / | -13 | 2.4 | -0.6 | -1 | 3.7 | -1
CC(=O)c1ccc(N2CCN(C(=O)Nc3ccc(Cl)cc3)CC2)cc1 | -4% | -3 | 1.0 | 3.6 | 2 | -2.5 | 3
CSc1ncccc1C(=O)OCC(=O)Nc1ccc2c(c1)OCO2 | -1% | -7 | -0.1 | 0.0 | -5 | -1.1 | 3
CCOc1ccc(C2OC(=O)Cc3cc(OC)c(OC)cc32)cc1 (centres undefined) | 1% | -3 | 1.8 | 4.4 | -9 | 2.1 | -5
CN(C)C(=O)CSc1nnc(CCCCCNC(=O)OC(C)(C)C)o1 | 1% | -2 | 2.5 | 0.6 | -8 | -3.3 | 7
CC(C)C1C(c2ccccc2)N(C)C(c2ccccc2)CC1(O)c1ccccc1 (centres undefined) | 0% | -19 | 2.4 | 5.2 | -6 | 1.6 | 34
CCOC(=O)CSc1nc2sccc2c(=O)[nH]1 | 0% | -2 | 0.2 | -0.2 | 9 | 0.8 | 2
CN(C)n1cccc1/C=C(\C#N)S(=O)(=O)c1cccc(Cl)c1 | 2% | / | 4.0 | -4.7 | 1 | 0.3 | -8
c1ccc2nc3c(nc2c1)OCC1CCCCN31 (centres undefined) | / | -7 | 2.0 | -0.9 | 0 | -0.7 | -4
CCOc1ccc(NC(=O)CN(C)C(=O)c2cc([N+](=O)[O-])ccc2N2CCCCC2)cc1OCC | 7% | -2 | 4.0 | -3.6 | 1 | 1.5 | 6
COc1ccc(C2CC(=O)C=C(NC3CCCC3)C2)cc1 (centres undefined) | -1% | 0 | 1.8 | 6.3 | 2 | -1.6 | -1
Cc1cc(C(=O)CSc2nnnn2-c2ccccc2)c(C)n1CCc1ccccc1 | 14% | -3 | 2.1 | 2.0 | -3 | 1.1 | -1
CC(C)(C)C(=O)OCc1nc(-c2ccc(O)c(O)c2)cs1 | 17µM* | 99* | -0.9 | -0.3 | -9 | -6.8 | -2
CC1=C(C#N)C(C(F)(F)F)(C(F)(F)F)N=C(c2ccco2)N1 | 1% | 4 | 2.6 | 1.4 | -17 | 2.3 | 1
Cc1nn(-c2ccc(F)cc2F)c(=O)c2noc(C)c12 | -7% | 0 | -3.1 | 0.7 | -6 | 1.6 | -1
O=C(COC(=O)c1cc(S(=O)(=O)N2CCOCC2)ccc1Cl)NCc1ccccc1 | -3% | / | / | -2.3 | / | 3.2 | -2
COc1cccc(CN(CC(=O)NC2CCCC2)C(=O)c2csnn2)c1 | / | -14 | 1.8 | 3.3 | -8 | -1.6 | -7
CSc1ncccc1C(=O)NC1CC(C)(C)Cc2c1cnn2-c1ccccc1C (centres undefined) | / | 1 | -0.1 | 1.1 | 3 | -2.5 | 3
CCOC(=O)c1cccc(NC(=O)c2cncc(Br)c2)c1 | -9% | -16 | 1.9 | -0.7 | -3 | -1.4 | -3
CC(C)N(C(=O)Cn1c(=O)oc2ccccc21)c1ccccc1 | 4% | -7 | 2.4 | -1.2 | -3 | -1.2 | 11
CCCCNC(=O)N(C)c1nc2ccccc2s1 | / | / | 0.5 | -2.0 | -14 | 1.5 | 2
COc1ccc(CCNC(=O)CN2CCN(c3cccc(C(F)(F)F)c3)CC2)cc1 | 0% | 2 | 2.3 | -2.1 | 6 | -1.8 | -4

An excerpt from above, limited to RanGTP-Imp inh, LANA-H2B inh and HNF4A DNA FP:
Structure	RanGTP-Imp inh	LANA-H2B inh	HNF4A DNA FP
COc1cccc(CN(CC(=O)NC2CCCC2)C(=O)c2csnn2)c1	1.8	3.3	-1.6
CSc1ncccc1C(=O)NC1CC(C)(C)Cc2c1cnn2-c1ccccc1C (centres undefined)	-0.1	1.1	-2.5
CCOC(=O)c1cccc(NC(=O)c2cncc(Br)c2)c1	1.9	-0.7	-1.4
CC(C)N(C(=O)Cn1c(=O)oc2ccccc21)c1ccccc1	2.4	-1.2	-1.2

The list goes on.
SMILES | Vif A3G | ALR H2O2 inh | RanGTP-Imp inh | LANA-H2B inh | Calb FLC | HNF4A DNA FP | B2AR ag
C/C(CC(=O)Nc1ccc(C)cc1C)=N\NC(=O)C(C)C | / | 3 | 1.7 | -0.7 | -23 | 2.7 | 5
CC#C[C@@H](CC)c1ccc2ccn(C)c2c1 | / | -3 | / | -5.7 | / | -1.4 | -1
CC(C)(CNC(=O)c1ccc(S(=O)(=O)Nc2ccccc2F)cc1)N1CCOCC1 | / | / | -1.3 | 8.4 | -1 | -0.4 | 3
Cc1ccc(NNC(=O)c2cc(C(C)(C)C)nn2Cc2ccccc2)cc1 | -3% | -4 | -0.5 | -1.8 | 1 | -2.5 | 5

Assay outcomes: PubChem BioAssay, several laboratories
